Assay outcomes (PubChem)
Ecoli rRNA inh = reduced GFP signal of wild-type E. coli, primary screen, bacterial rRNA inhibitor project, GFP/RFP fluorescence, OD600, single point. E. coli WT GFP vs humanized-ribosome RFP mutants, 24 h; hits give low values; DMSO median 0, no signal -100. GFP signal change (wild-type ribosome), % (concentration not given with the values). 1.6% of 350,000 active;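 active = significant combined selectivity score with lowered wild-type GFP, culture density cut under 30%, mutant RFP and density less affected; inactive = any of these conditions unmet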; note: one replicate is shown; some compounds called inactive have numbers as strong as hits
Calb FLC = C. albicans growth inhibition with fluconazole, primary screen, CaCi-2 strain, Alamar Blue fluorescence; AID 1979, 2009; 0.57% of 300,000 active; growth inhibition, % (no concentration beside the values); C. albicans CaCi-2 (fluconazole-resistant clinical isolate) + fluconazole, 48 h;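 active = most replicates above 75%; inconclusive = exactly half above 75%; inactive = most below 75%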;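 note: all wells also contain fluconazole at 8 µg/ml as a sub-toxic cotreatment; 0% = median of DMSO wells and 100% = median of geldanamycin control wells; wells of about 8 µL received 7.5 nL stock; the first replicate is given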
LANA-H2A inh = blockers of LANA interaction with H2A/H2B – biochemical, FP readout, HTS, primary screen. cell-free LANA-H2A/H2B peptide, fluorescence polarization. inhibition, % (test concentration not listed). 0.6% of 320,000 active. AID 2629, 2010; in the data active = inhibition mostly above about 10%, no sharp cut-off; inactive = mostly below about 6.7%;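 note: stock transfer was 7.5 nL into about 10 µL; 0% = median of vehicle wells and 100% = median of positive control wells; one replicate is shown; the record names a cut of 25% in any replicate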
Target sequence (Q9QR71 whole entry, looked up): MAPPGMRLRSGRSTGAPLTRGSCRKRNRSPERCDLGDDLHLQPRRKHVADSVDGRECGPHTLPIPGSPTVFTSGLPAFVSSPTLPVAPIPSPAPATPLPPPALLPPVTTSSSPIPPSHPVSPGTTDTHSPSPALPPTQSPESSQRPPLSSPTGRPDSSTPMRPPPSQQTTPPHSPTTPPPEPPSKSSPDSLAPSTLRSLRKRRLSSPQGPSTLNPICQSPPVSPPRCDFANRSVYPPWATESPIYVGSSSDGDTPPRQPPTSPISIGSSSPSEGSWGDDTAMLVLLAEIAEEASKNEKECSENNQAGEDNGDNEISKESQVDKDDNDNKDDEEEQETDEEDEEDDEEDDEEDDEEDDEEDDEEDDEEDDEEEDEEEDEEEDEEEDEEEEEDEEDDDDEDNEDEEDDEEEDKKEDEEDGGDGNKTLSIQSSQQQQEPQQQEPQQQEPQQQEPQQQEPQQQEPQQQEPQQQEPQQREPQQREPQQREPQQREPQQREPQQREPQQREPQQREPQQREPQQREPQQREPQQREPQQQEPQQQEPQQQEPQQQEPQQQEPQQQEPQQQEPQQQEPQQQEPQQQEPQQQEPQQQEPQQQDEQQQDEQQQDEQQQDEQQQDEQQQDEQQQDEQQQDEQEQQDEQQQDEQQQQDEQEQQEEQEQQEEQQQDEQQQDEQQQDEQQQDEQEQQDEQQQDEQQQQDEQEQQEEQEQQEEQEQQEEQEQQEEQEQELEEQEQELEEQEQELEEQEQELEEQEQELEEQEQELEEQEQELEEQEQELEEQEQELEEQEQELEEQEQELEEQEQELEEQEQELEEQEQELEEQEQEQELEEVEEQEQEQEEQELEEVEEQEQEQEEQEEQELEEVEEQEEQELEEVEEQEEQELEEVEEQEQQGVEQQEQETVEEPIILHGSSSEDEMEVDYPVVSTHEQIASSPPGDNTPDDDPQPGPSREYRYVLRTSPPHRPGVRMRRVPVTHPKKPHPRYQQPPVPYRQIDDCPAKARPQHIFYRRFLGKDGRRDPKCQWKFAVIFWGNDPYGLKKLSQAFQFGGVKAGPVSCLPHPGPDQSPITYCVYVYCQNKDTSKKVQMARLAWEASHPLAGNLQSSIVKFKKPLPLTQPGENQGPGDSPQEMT
B2AR ag = beta2AR agonists driving receptor internalization, primary screen, cell-based, FAP fluorogen, flow cytometry; Am2.2-beta2AR cells; reference of the scale not given here; Beta-2 adrenergic receptor (Homo sapiens), P07550; response, % (concentration not given with the values); 0.43% of 340,000 active;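 active = response above a set limit, near 3 SD of response in nonfluorescent compounds, cut at about 42% in these data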;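 note: stock transfer was 100 nL into about 11 µL; a reference agonist was the positive control; negative values mostly stem from fluorescent compounds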
T cruzi repl = inhibitors of intracellular T. cruzi growth, primary screen, luminescence, NIH3T3 host cells; T. cruzi beta-gal in NIH3T3, 90 h; inhibition, % (concentration not given with the values); 1.4% of 300,000 active; AID 1885, 2009;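 active = mean inhibition across valid replicates above about 55%, limit read from the data; inconclusive = mean below that limit but half or more replicates reach it; inactive = mean below it, under half of replicates reach it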;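 note: signal also drops with host cell toxicity which is not excluded here; 0% = plate median of DMSO wells and 100% = zero luminescence signal; higher percent means less beta-gal luminescence so fewer parasites; stock transfer was 50 nL into about 50 µL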
Beta cell apopt = inhibitors of cytokine-induced beta cell apoptosis, primary screen, luminescence; INS-1E cytokine-induced death, ATP luminescence, 48 h; percent of positive-control rescue, neutral wells zero; protection from apoptosis, % (concentration not given with the values); 0.8% of 300,000 active; AID 435005, 2010;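 active = all replicates at 75% or more, or half of them and the mean; inconclusive = half reach 75% but not the mean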;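 note: 0% = cytokine-treated negative control wells and 100% = positive control rescue; higher means more ATP so stronger rescue from cytokine killing; wells of about 40 µL received 100 nL stock; the first replicate is given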
ALR H2O2 inh = inhibitors of human ALR sulfhydryl oxidase, primary screen, biochemical, H2O2 detection, HRP-luminol luminescence, single point; AID 485317, 2010; FAD-linked sulfhydryl oxidase ALR (Homo sapiens), P55789; purified ALR, DTT oxidation; 3.8% of 290,000 active; inhibition, % (test concentration not listed);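 active = mean and each replicate at 75% or more; inconclusive = only one of the two met; inactive = neither met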;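 note: stock transfer was 7.5 nL into about 7.5 µL; 0% = neutral wells and 100% = wells with inactivated enzyme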
Bfl-1 A1 inh = caspase 3/7 activation in MEF A1-2A-BIM cells, primary screen, A1 inhibitor project, cell-based, luminescence, HTS; caspase activation, % (concentration not given with the values); AID 2462, 2010; 0.066% of 330,000 active; Caspase-Glo 3/7 luminescence, 3 h; percent of clofoctol response, vehicle zero;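 active = over half of replicate activation scores above 10%, or exactly half above 10 with the replicate mean above 10; inconclusive = replicate mean below 10 yet half the replicates above 10; inactive = over half of replicates below 10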;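 note: wells of about 30 µL received 50 nL stock; many hits fall short of the cut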
Ecoli rRNA inh OD600 = recorded beside Ecoli rRNA inh, whose call it bears; OD600 change, %; measured here: OD600 growth;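 optical density of the mix in the first replicate; 0 = DMSO median and -100 = no signal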
Ecoli rRNA inh RFP = also measured in Ecoli rRNA inh; calls as there; RFP signal change, %; measured here: RFP humanized mutant strains;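 first replicate; 0 = DMSO median and -100 = no signal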
* marks the source's active call; other numbers are inactive results; ? = inconclusive; nt = not tested or not shown. Some of the compounds tested. The share of hits here may be higher or lower than overall.

SMILES	Ecoli rRNA inh	Ecoli rRNA inh OD600	Ecoli rRNA inh RFP	Calb FLC	LANA-H2A inh	B2AR ag	T cruzi repl	Beta cell apopt	ALR H2O2 inh	Bfl-1 A1 inh
CCCS(=O)(=O)N1CCCC(C(=O)NCCCN2CCN(c3ccccc3F)CC2)C1 (stereo not drawn)	20	9	1.8	-3	-5.2	-3	-7	2	-3	1.3
CN(C)c1ccc(/C=N/NC(=O)CCCCCNC(=O)c2ccccc2)cc1	4	2	8.0	1	-4.5	-4	4	-5	nt	-0.1
Cc1cc(NC(=O)COC(=O)c2ccc(S(=O)(=O)N3CCCC3)cc2)no1	19	6	-1.2	23	4.3	0	-11	-3	-22	0.6
O=C1c2ccc(Cl)cc2S(=O)(=O)c2cccc(C(=O)N3CCN(c4ncc(Br)cn4)CC3)c21	0	-1	3.2	nt	-5.4	1	nt	5	-7	0.4
O=C(Nc1nc(-c2cc(F)ccc2F)cs1)c1ccccn1	0	10	4.5	-1	-2.5	15	-16	11	1	-0.7
CCc1cccc(NC(=O)C2CCN(S(=O)(=O)c3ccc4[nH]c(=O)ccc4c3)CC2)c1	1	1	-1.5	-12	-8.7	0	-1	4	nt	0.2
C=C1CC(C)OC(c2ccccc2OCC(O)CN2CCCCC2)C1 (stereo not drawn)	9	11	3.7	-16	-1.1	2	0	-9	-6	0.5
CC(C)NC(=O)C1CCN(C2CCN(CC3CC=CCC3)CC2)CC1 (stereo not drawn)	8	13	-1.8	-2	-5.2	-6	14	19	0	-0.7
CC(Sc1nncn1C)C(=O)Nc1ccccc1-c1ccccc1 (stereo not drawn)	nt	nt	nt	-1	2.4	7	-5	-8	1	-0.3
Cc1oc2cc(O)ccc2c(=O)c1-c1nncn1-c1ccccc1	24	15	9.7	24	9.0	5	-12	-1	-9	1.0
CC1CCC2C(=O)N(c3cc(Cl)ccc3OC(=O)c3ccco3)C(=O)C2C1 (stereo not drawn)	8	4	-4.0	2	nt	4	-14	nt	nt	nt
N/C(=N\OCc1ccc([N+](=O)[O-])cc1)c1ccccn1	nt	nt	nt	-21	5.6	-4	-2	0	-10	-0.3
COc1ccc(C(=O)Nc2nc3ccc(OC)cc3s2)cc1	-32*	-1.1*	-6.0*	-1	-0.1	0	-9	8	-25	-1.8
O=C(Nc1ccc(F)c(Cl)c1)C1CC2CCC1C2 (stereo not drawn)	-28*	4.5*	-7.4*	-1	4.4	-3	23	nt	-20	-0.3
NC(=O)CSc1nnc(CSc2ncccn2)n1-c1ccccc1	9	13	-2.6	30	2.4	6	2	4	nt	0.4
COc1cccc(NC(=O)Cc2nnc(SCC(=O)NC3CCCCC3)n2C)c1	9	3	-4.3	32	6.0	3	9	0	nt	-0.4
CCOCCCNC(=O)CN1N=C(c2ccc(C)cc2)CCC1=O	11	19	1.9	-4	-4.4	-1	0	-3	-9	0.2
O=[N+]([O-])c1ccc(/C=N/NC(=S)Nc2ccccc2F)o1	nt	nt	nt	21	-1.2	13	27	7	-16	-0.9
CC1CCC(NC(=O)CN(C)S(=O)(=O)c2cnc[nH]2)CC1 (stereo not drawn)	16	3	-9.5	6	-2.1	6	1	-1	-15	-0.4
CCOc1cc(-c2sc(Nc3ccc(CC)cc3)n[n+]2-c2ccccc2)ccc1OC	10	11	3.8	nt	-1.6	-8	nt	2	-1	1.2
Brc1ccc(-c2csc(N3CCCCCC3)n2)cc1	6	2	2.0	-3	2.4	-7	-33	6	60	0.3
Brc1ccc(-c2ccc(CNCc3ccccn3)o2)cc1	-26	-38	2.7	8	-1.4	-20	8	1	nt	-0.8
CCOC(=O)c1c(NC(=O)C(Sc2ccccc2)c2ccccc2)sc(C(N)=O)c1C (stereo not drawn)	nt	nt	nt	15	2.8	-4	43	-3	-4	-0.2
O=c1nc2n(Cc3ccccc3)c3ccccc3cc-2c(=O)[nH]1	6	13	-1.3	-22	0.6	nt	-13	-6	10	0.1
COc1ccc(-n2ncc3c(N4CCC(C)CC4)ncnc32)cc1	-48	-69	-11	-4	-3.2	10	14	10	-2	-2.4
Cc1cc(=O)oc2cc(OC(C)C(=O)Nc3ccc(N4CCCCC4)cc3)ccc12 (stereo not drawn)	5	17	11	21	-1.0	14	18	1	10	0.6
CCOC(=O)c1ccc(NC(=O)c2cc(S(=O)(=O)N3CCOCC3)ccc2O)cc1	nt	nt	nt	-10	-4.8	-1	10	7	-2	-1.1
COc1cc(-c2noc(C)c2-c2ccc3[nH]ccc3c2)cc(OC)c1OC	nt	nt	nt	9	4.1	32	25	17	-6	0.5
Cc1cccc(NC(=O)C2COc3ccccc3O2)n1 (stereo not drawn)	-1	-1	0.4	-7	-2.6	-2	16	-10	-4	-0.2
Cc1c(NC(=O)c2ccc3c(c2)OCO3)cccc1-c1nc2ncccc2o1	9	13	-0.3	-7	-1.1	-18	-12	nt	-6	-0.2
C=CCn1c(C)cc(C(=O)CSc2nc3ccccc3c(=O)[nH]2)c1C	nt	nt	nt	nt	-3.7	7	nt	16	19	-0.3
OCCN(CCO)c1ncnc2c1oc1ccc(Br)cc12	nt	nt	nt	-7	0.2	2	1	-3	9	0.3
CCC(C)C(=O)Nc1nnc(SCC(=O)N2C(C)CCCC2C)s1 (stereo not drawn)	0	-8	0.2	-2	3.1	-9	14	-1	-3	0.1
CC(C)OP(=O)(OC(C)C)C(NC(=O)c1cccc([N+](=O)[O-])c1)C(N)=O (stereo not drawn)	nt	nt	nt	nt	4.8	3	7	-2	-1	2.8
CCOC(=O)c1cc(C(C)=O)n2ccccc12	nt	nt	nt	15	3.6	1	6	-2	-4	0.2
COc1ccc(NS(=O)(=O)c2cccc(C(=O)NNC(=O)c3cc(C)oc3C)c2)cc1	-3	-1	5.6	2	2.1	-6	-9	4	8	0.4
Cn1c(=O)[nH]c(=O)c2c1[nH]c(=S)n2Cc1ccc(Cl)cc1	7	11	-0.7	-3	1.0	-2	-9	-2	99*	0.5
COc1ccc(-n2c(SCC(=O)Nc3ccccc3)nnc2-c2ccoc2C)cc1	nt	nt	nt	7	-1.4	-4	4	0	96*	0.5
O=C(N/C(=C\c1ccc(F)cc1)C(=O)N1CCOCC1)c1ccccc1	10	-7	-2.6	-4	-2.0	0	4	4	3	0.0
O=C(COc1ccc2c3c(c(=O)oc2c1)CCC3)N1CCN(c2ccccc2)CC1	-16	-14	3.1	-2	9.5	11	2	nt	1	-1.4
CCCOC(=O)Nc1sc2c(c1C(N)=O)CCCC2	0	-2	-3.1	2	-0.2	-14	12	-8	nt	1.2
COC(=O)Cc1c(C)c2ccc(OC(C)C)cc2oc1=O	-6	-2	-3.8	8	-0.8	6	-2	-3	-1	-0.9
COc1ccccc1NC(=O)CCC(=O)c1ccc(-c2ccccc2)cc1	nt	nt	nt	1	-9.0	10	-8	nt	1	0.2
Cc1cc(OCCCC(=O)Nc2cccc(-n3cnnn3)c2)ccc1Cl	-34*	-22*	-0.5*	-6	8.9	-7	0	-10	-76	-0.2
CNC(=O)Cn1c(C)cc(=O)c2cccc(C)c21	0	-10	-1.2	-3	1.3	-5	2	5	-11	0.5
Cc1ccc(C(=O)O)cc1S(=O)(=O)N1CCOCC1	nt	nt	nt	-7	-1.5	-3	-8	0	-14	0.6
COCCNC(=O)CN(C(=O)Cn1nnc2ccccc21)c1ccc(F)c(Cl)c1	nt	nt	nt	2	-1.9	-3	-6	1	-6	0.6
COc1ccccc1N(CN1C(=O)c2ccccc2C1=O)C(=O)c1cccnc1	nt	nt	nt	-11	2.1	-16	nt	1	-10	0.1
O=C(CCNS(=O)(=O)c1cccs1)N1CCN(c2cccc(C(F)(F)F)c2)CC1	5	8	-1.1	nt	-1.3	3	nt	4	nt	-0.8
CC1CCCCN1C(=O)COc1ccc2ccc(=O)oc2c1 (stereo not drawn)	21	13	-8.4	-6	-0.5	7	14	-9	-2	0.0

Next section
SMILES	Ecoli rRNA inh	Ecoli rRNA inh OD600	Ecoli rRNA inh RFP	Calb FLC	LANA-H2A inh	B2AR ag	T cruzi repl	Beta cell apopt	ALR H2O2 inh	Bfl-1 A1 inh
CCOC(=O)c1c2c3c(c(Cl)ccc3[nH]c1=O)C(=O)c1ccccc1-2	-2	-3	16	11	nt	-94	-8	nt	nt	nt
CCC12CN(C(=O)c3ccco3)CC(CC)(CN(C(=O)c3ccco3)C1)C2=O	14	13	2.2	4	0.4	0	-5	3	2	-0.1
C=CCn1c(=O)c(C(=O)Nc2ccccc2S(N)(=O)=O)c(O)c2ccccc21	3	-8	-0.4	?	-3.8	-3	-14	1	2	-0.6
CCOc1cccc(C(=O)Nc2ccc3oc(Cc4ccc(Cl)cc4)nc3c2)c1	-30*	-15*	-0.9*	-2	7.1	-6	30	0	2	-1.0
COC(C(=O)Nc1ccc(NC(=O)C(OC)c2ccccc2)cc1)c1ccccc1 (stereo not drawn)	-2	9	-3.5	17	12	4	0	-5	-17	0.4
Cc1cccc(NC(=O)CSc2nc(=O)n(CCN3CCOCC3)c3c2CCCC3)c1C	11	2	1.7	5	0.1	2	2	nt	-13	-1.1
COC(=O)CN1C(c2ccc(OC)cc2)=Nc2ccc(Cl)cc2C1c1ccccc1 (stereo not drawn)	nt	nt	nt	-2	0.3	6	17	0	-46	0.3
Cc1c(O)ccc2c(CN3CCN(CCO)CC3)cc(=O)oc12	nt	nt	nt	1	-30	-1	45	6	90*	0.0
COCCN1C(=O)C(=O)/C(=C(/O)c2ccc(S(=O)(=O)N3CCOCC3)cc2)C1c1ccc(O)cc1 (stereo not drawn)	7	14	10	0	6.1	5	1	-1	-7	0.8
CCCCCCSc1cccc(-c2nc3ccc(C)cn3c2NCc2ccccc2)c1	-2	-8	-0.8	-9	-2.0	16	14	3	nt	-0.6
O=C(COc1ccc(Cl)cc1[N+](=O)[O-])N1CCCCCC1	2	6	-0.1	-3	-0.7	-14	6	-2	-14	0.5
CCc1ccc2nc3sc(C(=O)O)cc3cc2c1	-18	-15	-5.4	-5	0.3	6	2	0	50	0.5
Cc1cc(C)nc(-n2nc(C)c3c(C(=O)O)cc(-c4cccc(Br)c4)nc32)n1	-3	-7	-4.9	3	1.4	7	5	-3	-2	0.9
Cc1c(C)[n+](=O)c(-c2ccc(F)cc2)c(C)n1[O-]	nt	nt	nt	3	-1.1	1	-3	1	-1	-0.4
COc1ccc(CN(C(=O)CN2C(=O)COc3ccccc32)C2CCCC2)c(OC)c1	nt	nt	nt	16	4.0	3	28	-4	-5	-1.3
COc1ccc(Br)cc1CN(C)C(=O)Cc1ccc(S(=O)(=O)N2CCOCC2)s1	-20	-22	-2.4	0	-0.3	5	12	-4	-2	0.4
